# Screening results as filed in PubChem BioAssay.
# APP transl inh: inhibitors of APP translation via 5'UTR reporter, primary screen, APP 5'UTR luciferase, SH-SY5Y cells; 190,000 compounds, 0.82% hits; inhibition, % at 2 µM; SH-SY5Y APP 5'UTR-luciferase reporter, luminescence;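 active = inhibition above a set limit, derived from the sample mean plus 3 SD, cut at about 45% in these data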; note: values of inactives mirror those of a sister screen read the other way
# FLuc stim CS: FLuc activators, initial screening, artefact control for FLuc-dependent activation tests, biochemical, ATPlite luminescence | Luciferin 4-monooxygenase (Photinus pyralis), P08659 | activation factor at 10 µM | 200,000 tested, under 10 active | ATPlite luciferase biochemical, 10 min; 0 = ATP-free wells, 1 = DMSO control;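 active = luciferase activation factor, scaled between plate controls, of at least 2 with compound at 10 µM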
# Target sequence (P08659 whole entry, looked up): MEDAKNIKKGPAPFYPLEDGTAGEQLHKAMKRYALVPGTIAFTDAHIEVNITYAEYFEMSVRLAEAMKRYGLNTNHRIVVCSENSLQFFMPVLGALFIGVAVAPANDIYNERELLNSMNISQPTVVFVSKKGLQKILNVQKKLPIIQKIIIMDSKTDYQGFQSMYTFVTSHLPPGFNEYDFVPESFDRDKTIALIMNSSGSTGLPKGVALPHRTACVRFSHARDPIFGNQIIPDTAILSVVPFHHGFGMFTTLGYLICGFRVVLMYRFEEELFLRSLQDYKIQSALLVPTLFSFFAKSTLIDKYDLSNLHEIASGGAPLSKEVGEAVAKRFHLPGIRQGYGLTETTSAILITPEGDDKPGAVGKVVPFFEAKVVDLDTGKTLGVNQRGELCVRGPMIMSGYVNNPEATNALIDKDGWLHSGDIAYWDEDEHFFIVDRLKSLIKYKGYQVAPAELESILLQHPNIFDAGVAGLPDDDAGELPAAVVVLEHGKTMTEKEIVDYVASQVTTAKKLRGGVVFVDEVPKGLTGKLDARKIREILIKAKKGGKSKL
#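 Material: Luciferase/luciferin reagent mix; Doses: test compounds dosed from 2 mM stocks in 100% DMSO; Schedule: 10 min incubation after luciferase reagent addition, room temperature; Measured by: luminescence from luciferase reaction; Read-out: luminescence gain marking luciferase activators.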
# FLuc inhib CS: firefly luciferase enzyme inhibitors, primary screen, artefact control for luciferase-based inhibitor screens, biochemical, luminescence, ATPLite. Luciferin 4-monooxygenase (Photinus pyralis), P08659. 10 min. inhibition, % at 10 µM. 200,000 compounds, 1.5% hits. AID 1006, 2008;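 active = inhibition above about 50% when tested at 10 µM, limit read from the data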
# L major viab: Leishmania major promastigote growth inhibition, primary screen. Leishmania major promastigotes, resazurin fluorescence viability. inhibition, % at 10 µM. 200,000 compounds, 9% hits. AID 1063, 2008; in the data active = inhibition above about 50%;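 note: promastigotes grown with compound for 44 hours at 28 °C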
# RAM network inh: inhibitors of the yeast RAM network, primary screen, dse1pr::URA3 reporter, 5-FOA selection. S. cerevisiae dse1pr::URA3 reporter, 5-FOA growth OD615, 2 d; analog-sensitive cbk1-as2 kinase mutant strain. inhibition, % at 50 µM. 190,000 compounds, 1.8% hits. AID 868, 2007;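 active = inhibition above a set limit, 3 SD over mean compound inhibition, cut at about 8.4% in these data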;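 note: 0% = DMSO-only wells with no growth and 100% = 10 µM 1-NA-PP1 full growth; inhibition rescues growth on 5-FOA so higher OD means more RAM inhibition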
# Starred values were filed as active, the others as inactive; nt = no result given. An excerpt. The share of hits here may be higher or lower than overall.
canonical_smiles	APP transl inh	FLuc stim CS	FLuc inhib CS	L major viab	RAM network inh
CCOc1cc(/C=C/c2ccc3cccc([N+](=O)[O-])c3n2)cc(Cl)c1O	-2	1.1	-8	-3	1.8
c1ccc(-c2n[nH]c(-c3ccccn3)n2)nc1	-46	0.9	14	100*	0.1
O=C(O)c1ccccc1S	-11	1.1	-7	-9	2.5
O=C(Nc1ccccc1)c1ccc(OC(=O)c2cc3ccccc3o2)cc1	-6	1.1	-6	-1	5.8
O=C(Nc1ncn[nH]1)c1cccc(S(=O)(=O)N2CCOCC2)c1	-28	1	0	5	-1.0
CCc1c(C(=O)NNC(=S)NCC2CCCO2)csc1C (stereo unspecified)	1	1	-3	-6	0.1
Cc1ccc(NC(=S)NNC(=O)c2nn(C)c(C)c2Cl)cc1	-112	0.7	32	-5	5.9
CCn1nc(C)c(/C=N/NC(=O)c2ccc3c(c2)c(C)c(C)n3Cc2ccccc2)c1C	nt	1.1	-7	18	4.7
Cc1cccc(C)c1OCC(=O)Nc1ncn[nH]1	0	1	-5	4	0.0
CC(C)(C)c1ccc(C(=O)Nc2ncn[nH]2)cc1	-105	0.6	44	-8	1.1
O=C(NCc1cccnc1)NC1(C(F)(F)F)Oc2ccc(Cl)cc2O1 (stereo unspecified)	22	1.1	-7	21	-0.2
O=C(CCC1CCCCC1)Nc1ncn[nH]1	-5	1.1	-9	-5	0.7
CNC[C@H](O)c1ccc(O)c(O)c1	-16	1	-4	0	2.9
CCNC(=S)NNC(=S)NCc1ccccc1	-11	1	0	-7	0.0
Cc1cccc2nc(CSc3nc4ccccc4[nH]3)cn12	-6	0.9	6	26	-0.1
CC(C)(C)c1cc(Br)ccc1OCC(=O)Nc1ncn[nH]1	-8	1.1	-5	3	1.2
Cc1ccc(NC(=S)NNC(=O)c2c(Cl)c(C)nn2C)cc1	-15	1	-4	-8	0.4
COCCNC(=O)CCC(=O)NNc1nc2ccccc2c2nc(C)nn12	-8	1	-3	0	0.4

# Some of these compounds in order of their number in RAM network inh, rising.
mol	RAM network inh
Cc1cccc2nc(CSc3nc4ccccc4[nH]3)cn12	-0.1
CCc1c(C(=O)NNC(=S)NCC2CCCO2)csc1C (stereo unspecified)	0.1
CC(C)(C)c1cc(Br)ccc1OCC(=O)Nc1ncn[nH]1	1.2
O=C(O)c1ccccc1S	2.5
CNC[C@H](O)c1ccc(O)c(O)c1	2.9

# Record cards (already shown). Values in the order: APP transl inh	FLuc stim CS	FLuc inhib CS	L major viab	RAM network inh
# Shown for CCNC(=S)NNC(=S)NCc1ccccc1 : -11	1	0	-7	0.0
# Shown for O=C(O)c1ccccc1S : -11	1.1	-7	-9	2.5
# Shown for Cc1ccc(NC(=S)NNC(=O)c2c(Cl)c(C)nn2C)cc1 : -15	1	-4	-8	0.4
# Shown for O=C(CCC1CCCCC1)Nc1ncn[nH]1 : -5	1.1	-9	-5	0.7
# Shown for Cc1ccc(NC(=S)NNC(=O)c2nn(C)c(C)c2Cl)cc1 : -112	0.7	32	-5	5.9

# A stretch from further up:
canonical_smiles	APP transl inh	FLuc stim CS	FLuc inhib CS	L major viab	RAM network inh
CNC[C@H](O)c1ccc(O)c(O)c1	-16	1	-4	0	2.9
CCNC(=S)NNC(=S)NCc1ccccc1	-11	1	0	-7	0.0
